HNF4A DNA FP: change in binding of human HNF4 alpha to DNA; HNF4a-FITC DNA binding, fluorescence polarization, 1 h; activity change, % at 10 µM; P41235; hit rate 0.3% among 360,000; in the data active = activity change above about 30%, passing the limit was not always enough;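 also: controls were the assay level and a saturating level of protein; the project sought stronger binding though the title names inhibitors; some compounds called inactive have numbers as strong as hits; positive values seem to mean higher polarization but the record does not say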
Vif TR-FRET: HIV-1 Vif–A3G interaction blockers – biochemical, TR-FRET, GST-Vif 1-94, biotin-A3G peptide, dose response retest, primary screen (AID 1117319) | TR-FRET GST-Vif / biotin-A3G peptide binding; higher % means a stronger effect; test concentration not given here; strong numbers were not always called active | inhibition, %; hits with a dose series show IC50 in µM | hit rate 0.57% among 260,000;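 active = above the screen mean plus three standard deviations and confirmed in dose response; inconclusive = results disagree or hit not tested in dose response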;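 also: Vif residues 1-94 fused to GST binding biotinylated APOBEC3G peptide 110-148; 0% = full assay without inhibitor and 100% = GST in place of GST-Vif; retest series ran down from 100 µM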
RanGTP-Imp inh: inhibitors of RanGTP-importin-beta interaction, primary screen, biochemical, FRET, CFP-Ran, YFP-importin-beta, homogeneous | cell-free CFP-Ran/YFP-importin-beta FRET ratio | inhibition, % (concentration not given with the values) | hit rate 1.1% among 300,000;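 active = most replicates above 15%; inconclusive = exactly half above 15%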;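 also: 0% = DMSO wells and 100% = Ran loaded with GDP instead of GTP; wells of about 40 µL received 100 nL stock; the first replicate is given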
ALR inh: blocks human ALR sulfhydryl oxidase activity | hit rate 3.8% among 290,000 | purified ALR, DTT oxidation, H2O2 HRP-luminol luminescence | inhibition, % (test concentration not listed);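 active = mean and each replicate at 75% or more; inconclusive = only one of the two met; inactive = neither met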;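 also: stock transfer was 7.5 nL into about 7.5 µL; 0% = neutral wells and 100% = wells with inactivated enzyme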
B2AR ag: human beta-2 adrenergic receptor agonism by FAP; P07550; Am2.2-beta2AR cells, FAP receptor internalization, flow cytometry; reference of the scale not given here; response, % (test concentration not listed); hit rate 0.43% among 340,000;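 active = response above a set limit, near 3 SD of response in nonfluorescent compounds, cut at about 42% in these data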;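 also: stock transfer was 100 nL into about 11 µL; a reference agonist was the positive control; negative values mostly stem from fluorescent compounds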
LANA-H2A inh: blocks KSHV LANA binding to histone H2A/H2B; cell-free LANA-H2A/H2B peptide, fluorescence polarization; Q9QR71; hit rate 0.6% among 320,000; inhibition, % (test concentration not listed); in the data active = inhibition mostly above about 10%, no sharp cut-off; inactive = mostly below about 6.7%;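 also: stock transfer was 7.5 nL into about 10 µL; 0% = median of vehicle wells and 100% = median of positive control wells; one replicate is shown; the record names a cut of 25% in any replicate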
Target sequence (Q9QR71 whole entry, looked up): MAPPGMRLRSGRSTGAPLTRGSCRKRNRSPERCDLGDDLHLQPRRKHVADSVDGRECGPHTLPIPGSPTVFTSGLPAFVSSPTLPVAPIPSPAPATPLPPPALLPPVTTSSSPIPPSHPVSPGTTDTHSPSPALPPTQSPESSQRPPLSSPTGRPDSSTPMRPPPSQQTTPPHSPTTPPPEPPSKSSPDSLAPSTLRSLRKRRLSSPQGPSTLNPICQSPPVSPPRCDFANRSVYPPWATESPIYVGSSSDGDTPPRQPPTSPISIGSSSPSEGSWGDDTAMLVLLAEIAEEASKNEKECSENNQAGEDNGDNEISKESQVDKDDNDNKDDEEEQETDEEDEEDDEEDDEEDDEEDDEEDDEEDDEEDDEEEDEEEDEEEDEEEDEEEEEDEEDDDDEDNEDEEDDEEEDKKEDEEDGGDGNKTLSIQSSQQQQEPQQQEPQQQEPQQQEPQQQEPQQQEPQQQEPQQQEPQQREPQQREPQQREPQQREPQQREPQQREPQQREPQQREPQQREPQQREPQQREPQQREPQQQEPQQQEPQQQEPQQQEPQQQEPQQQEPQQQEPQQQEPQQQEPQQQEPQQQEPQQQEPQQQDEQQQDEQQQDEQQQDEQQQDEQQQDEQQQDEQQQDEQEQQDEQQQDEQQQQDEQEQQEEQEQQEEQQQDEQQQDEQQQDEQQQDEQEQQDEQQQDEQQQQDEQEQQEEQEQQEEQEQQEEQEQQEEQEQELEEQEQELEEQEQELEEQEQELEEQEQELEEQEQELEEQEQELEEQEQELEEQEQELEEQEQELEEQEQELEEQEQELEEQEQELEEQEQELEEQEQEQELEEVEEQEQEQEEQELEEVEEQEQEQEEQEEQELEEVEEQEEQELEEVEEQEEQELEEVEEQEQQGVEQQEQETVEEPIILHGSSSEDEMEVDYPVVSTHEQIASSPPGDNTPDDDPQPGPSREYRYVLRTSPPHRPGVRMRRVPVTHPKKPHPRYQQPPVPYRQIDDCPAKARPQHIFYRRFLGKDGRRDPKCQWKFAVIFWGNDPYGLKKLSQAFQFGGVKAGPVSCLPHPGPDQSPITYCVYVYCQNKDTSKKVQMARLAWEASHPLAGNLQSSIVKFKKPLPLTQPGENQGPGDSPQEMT
Calb FLC: affects C. albicans growth with fluconazole; C. albicans CaCi-2 (fluconazole-resistant clinical isolate) + fluconazole, Alamar Blue growth, 48 h; growth inhibition, % (test concentration not listed); hit rate 0.57% among 300,000;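 active = most replicates above 75%; inconclusive = exactly half above 75%; inactive = most below 75%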;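 also: all wells also contain fluconazole at 8 µg/ml as a sub-toxic cotreatment; 0% = median of DMSO wells and 100% = median of geldanamycin control wells; wells of about 8 µL received 7.5 nL stock; the first replicate is given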
The depositor's hits bear a star; ? = inconclusive; . = no result given; & = joins results of further samples.

SMILES	HNF4A DNA FP	Vif TR-FRET	RanGTP-Imp inh	ALR inh	B2AR ag	LANA-H2A inh	Calb FLC
COc1ccc(S(=O)(=O)NCC2CCCN(C(=O)c3sccc3C)C2)cc1 (centres undefined)	0.1	-10%	2.8	-7	1	-1.0	-1
CCc1nnc(NC(=O)CSCc2cc(=O)n3ccsc3n2)s1	-1.1	-2%	?	-3	-2	4.3	-6
COc1ccc(/C=C(/NC(=O)c2ccccc2)C(=O)N/N=C/c2ccc3c(c2)OCO3)cc1OC	-0.7	4%	.	.	-1	.	.
O=C(c1ccc(OC2CCN(CCc3ccccc3)CC2)cc1)N1CCCC(O)C1 (centres undefined)	5.8	24%	.	-14	-6	0.6	-7
CC[C@]12c3[nH]c4ccccc4c3CCN1C(=O)C(CC(=O)NCCCn1ccnc1)C[C@@H]2C(=O)N1CCN(C(=O)C2CC2)CC1 (some centres undefined)	2.1	12%	.	-1	1	-290	.
COc1ccc(OCCn2c(NC(=O)c3ccco3)nc3ccccc32)cc1	0.8	-21%	1.6	-23	-5	1.6	5
CCCN(CCC)c1ccc(/C=C/c2ccc3cc(OCC)ccc3n2)cc1	88	10%	21*	-16	-106	-0.4	.
O=C(NC1CCCCC1)NC1CC2CCC(C1)N2Cc1nnnn1Cc1ccc2c(c1)OCO2 (centres undefined)	-3.2	2%	1.3	-6	-16	-4.2	6
O=S(=O)(NCC1CCCO1)c1ccc2ccccc2c1 (centres undefined)	0.3	3%	1.1	-4	3	-0.3	-4
COc1ccccc1/C=C/C(=O)/C=C/c1ccccc1O	0.3	3%	.	.	23	.	.

The list goes on; it opens with the 2 that closed the last part.
SMILES	HNF4A DNA FP	Vif TR-FRET	RanGTP-Imp inh	ALR inh	B2AR ag	LANA-H2A inh	Calb FLC
O=S(=O)(NCC1CCCO1)c1ccc2ccccc2c1 (centres undefined)	0.3	3%	1.1	-4	3	-0.3	-4
COc1ccccc1/C=C/C(=O)/C=C/c1ccccc1O	0.3	3%	.	.	23	.	.
N#Cc1c(NC(=O)CSc2ncnc3c2cnn3-c2ccccc2Cl)sc2c1CCCC2	-1.7	5%	-0.1	-7	5	-8.1	10
CCOC(=O)c1cnn(CCOC(=O)C(C)(C)C)c1NC(=O)C(C)(C)C	2.2	6%	-2.1	-13	8	4.8	-15
CCOC(=O)c1ccc(NC(=O)Nc2c(C)nn(C)c2C)cc1	4.9	0%	-0.5	-64	0	-0.5	-9
O=C1CN(S(=O)(=O)c2ccc(Br)cc2)c2ccccc2N1	-2.4	.	1.1	7	-6	4.2	6
CN(C(=O)COc1ccc2ccc(=O)oc2c1)C1CCS(=O)(=O)C1 (centres undefined)	2.7	.	0.4	-5	6	-3.0	-9
Cn1ccnc1SCC(=O)Nc1cccc(C(F)(F)F)c1	-3.8	24%	5.6	100*	-2	-2.8	-3
CN(C)CCN(C(=O)CCS(=O)(=O)c1ccccc1)c1nc2c(F)cccc2s1	-0.9	-4%	1.2	20	5	-0.4	-2
CS(=O)(=O)c1cccc(C(=O)OCCCC(=O)c2ccccc2)c1	3.0	.	.	-3	11	4.0	.
Nc1cc(C(=O)O)c(N)c2c1C(=O)c1ccccc1C2=O	-61	-6%	-11	99*	6	17	-10
Cc1cccn2c(=O)c3cc(C(=O)NCC4CCCO4)c(=N)n(CCc4ccccc4)c3nc12 (centres undefined)	1.1	.	176*	.	-6	-12	-12
COc1ccccc1CNC(=O)COC(=O)c1cc(=O)c2ccccc2o1	1.1	.	.	.	3	17*	.
O=C(NCCNCc1ccc(F)cc1)c1ccco1	2.6	-1%	-0.8	.	2	0.5	13
CC(NC(=O)C(Cc1ccccc1)n1cccc1)c1ccccc1 (centres undefined)	2.6	0%	1.4	-1	1	1.2	-4
CCCCC(CC)COC1(c2ccccc2)OC(=O)c2ccccc21 (centres undefined)	-1.7	-3%	-3.4	.	27	-7.9	0
CCn1cc(C=C2C(=O)c3ccccc3C2=O)c2ccccc21	36*	.	6.2	.	-4	.	29
COc1ccc(C)cc1Nc1n[n+](-c2ccccc2)c(-c2ccc(NC(C)=O)cc2)s1	7.7	.	-1.5	-4	6	-1.8	-6
CCCCCCCC(=O)N/N=C/c1cccnc1	0.2	-1%	?	-1	-10	-5.4	9
CCC(CC)C(=O)Oc1c(Sc2ccccc2[N+](=O)[O-])c(C)nn1C(C)(C)C	-4.2	.	?	-11	10	-10	-9
CCN(c1ccccc1)S(=O)(=O)c1ccc(Cl)c(NC(=O)COC(=O)c2cccc(OC)c2O)c1	-6.0	0%	1.6	-5	2	2.4	20
CCOc1cccc(C(=O)Nc2cccc(C(C)=O)c2)c1	-3.6	.	3.8	-5	-4	0.7	?
COc1ccc(C(O)C(CN2CCOCC2)c2ccccc2)cc1 (centres undefined)	-2.9	12%	3.5	.	1	-0.5	-8
CCOc1ccccc1N(CC(=O)NCc1ccco1)C(=O)CCC(=O)Nc1nccs1	2.6	4%	-4.1	1	-4	0.2	-13
O=C(NCCCN1CCOCC1)c1cc2ccccc2cc1O	0.3	0%	2.9	.	-10	2.4	-8
CCOc1ccc(OCCC(=O)OCC(=O)Nc2cc(S(=O)(=O)N3CCOCC3)ccc2C)cc1	-1.8	-3%	-2.0	.	5	2.0	2
COc1ccc(NC(=O)COC(=O)c2cc(S(=O)(=O)N3CCCC3)ccc2O)cc1	1.3	-3%	.	-4	-5	-3.2	.
O=C(NCc1cccc(F)c1F)C1CCC(=O)N(C2CCCCCC2)C1 (centres undefined)	-2.2	.	2.6	-4	-4	-0.4	5
O=C(Nc1ccccc1)C1CCCN1S(=O)(=O)c1cccs1 (centres undefined)	-0.4	0%	0.5	-11	5	1.7	9
COc1cccc(Nc2nc(C)cc(C)c2C#N)c1	3.8	-1%	.	2	-2	-5.1	.
O=S(=O)(Cc1ccccc1)Cc1cnc(Cl)s1	0.3	-9%	-0.3	-1	1	-5.0	-4
O=C(Nc1ccccc1)c1ccc[n+](Cc2ccc([N+](=O)[O-])cc2)c1	0.3	4%	1.7	-13	-10	3.3	5

Some values from the results shown.
Value for `CC[C@]12c3[nH]c4ccccc4c3CCN1C(=O)C(CC(=O)NCCCn1ccnc1)C[C@@H]2C(=O)N1CCN(C(=O)C2CC2)CC1` (some centres undefined) in LANA-H2A inh: -290
Value for `O=C(NCCNCc1ccc(F)cc1)c1ccco1` in RanGTP-Imp inh: -0.8
Value for `CS(=O)(=O)c1cccc(C(=O)OCCCC(=O)c2ccccc2)c1` in ALR inh: -3

(listing goes on)
SMILES	HNF4A DNA FP	Vif TR-FRET	RanGTP-Imp inh	ALR inh	B2AR ag	LANA-H2A inh	Calb FLC
CC(C)(C)c1ccc(-c2nc3c(C#N)c(-c4ccc5c(c4)OCO5)ccn3n2)cc1	5.7	-4%	0.5	19	0	-3.9	?
O=[N+]([O-])c1cccc(/C=N\N=C2c3ccccc3-c3ccccc32)c1O	-3.9	.	-1.3	-5	17	-2.3	37
O=C(NC1CC1)c1cc(OCC(F)(F)F)ccc1OCC(F)(F)F	-3.9	12%	2.9	1	-2	-2.3	-2
CCCCCCOC(=O)C(C#N)c1nc2ccccc2nc1N1CCCCC1 (centres undefined)	2.9	-2%	31*	-6	0	6.9	-5
CCN1CCN(c2ccc(NC(=O)c3ccco3)cc2Cl)CC1	-1.1	.	-3.6	-3	-16	-5.8	4
O=C(O)C1=C[C@@H](c2ccc(C(F)(F)F)cc2)C[C@@H](OCc2ccc(CO)cc2)O1	3.3	0%	0.6	.	-9	1.4	9
CCn1ncc([N+](=O)[O-])c1C(=O)Nc1nc2cccc(C)c2s1	-1.7	-6%	8.8	-21	2	-2.4	26
CS(=O)(=O)c1ccc2nc(NC(=O)c3ccco3)sc2c1	-2.9	8%	-1.0	-8	-18	-2.5	16
COCCn1c(SCC(=O)Nc2ccccc2OC)nc2c(oc3ccccc32)c1=O	-3.0	3%	0.3	-2	-6	-4.0	0
COc1cc(C(=O)COC(=O)c2cnc(C)cn2)ccc1OC(F)F	3.2	-9%	0.9	-4	2	0.6	5
Cc1cc(C(=O)NC2CCC(O)CC2)c(C)o1 (centres undefined)	-1.1	.	.	5	-4	1.7	.
O=C(c1ccc2c(=O)n(CCc3ccccc3)c(=O)[nH]c2c1)N1CCN(c2ccc(F)cc2)CC1	-3.7	.	0.3	.	14	2.0	21
O=C(NCCCNc1ccc([N+](=O)[O-])cc1)C(F)(F)F	0.1	4%	0.5	0	4	-0.7	-19
Cc1ccc(Oc2ncccc2C(=O)NCC(=O)O)cc1	-4.2	-7%	6.7	-12	3	-2.0	14
CCNS(=O)(=O)c1ccc(CCC(=O)NCc2ccccc2)cc1	-3.0	5%	2.0	1	-1	-1.5	-3
CCn1c(C(=O)NC(C)c2ccc3c(c2)OCCO3)cc2sccc21 (centres undefined)	-1.7	-4%	4.5	0	-7	-3.3	-8
CCC(=O)N(CCc1ccccc1)Cc1cc2cc(C)ccc2[nH]c1=O	-1.8	.	1.6	-3	9	-1.1	-2
Cc1ccsc1/C=N/NC(=O)c1nnn(-c2nonc2N)c1C(C)C	0.2	.	0.3	-3	-13	-1.4	-7
CCCOc1ccc(N2C(=O)CC(NCc3cccs3)C2=O)cc1 (centres undefined)	-5.7	-1%	2.5	.	-4	1.8	0
CC(=O)C1=CN(CC2CCCCC2)CCC1=O	2.2	6%	.	.	-4	.	.
Cn1c(Cn2nnc3ccccc32)nnc1SCC(=O)N1c2ccccc2Sc2ccccc21	-2.3	-7%&-5%	0.4	-13	3	-3.1	6
CC(C)COc1cccc(C(=O)NC2(C)CCS(=O)(=O)C2)c1 (centres undefined)	-0.5	.	1.2	1	-14	3.0	-1
NC(=O)c1cc([N+](=O)[O-])ccc1N1CCCCC1	3.2	-9%	0.9	.	6	1.0	-1
O=C(CCCCCn1c(=O)[nH]c2ccsc2c1=O)NCc1ccc2c(c1)OCO2	0.8	-20%	2.9	-11	113*	3.0	-5
COc1ccc(C)cc1NC(=S)NC(C)c1ccc(OC)c(OC)c1 (centres undefined)	3.2	0%	-2.0	2	8	-7.3	-37
O=C(COC(=O)c1ccc(S(=O)(=O)N2CCCCC2)cc1)Nc1ccccc1	-2.6	4%	.	-1	-9	5.7	.
O=C(Oc1ccc(Cl)c2ccccc12)N1CCCCC1	0.6	-8%	-0.7	-5	24	-8.6	2
CC(C(=O)Nc1ccccc1C(=O)O)n1c(C(F)(F)F)nc2ccccc21 (centres undefined)	1.1	-2%	8.3	-4	7	-3.4	-4
CCCCCNC(=O)CCc1ccccc1	-4.5	-1%	-8.1	-3	4	-0.3	6
COc1ccccc1C(c1c(N)n(C)c(=O)n(C)c1=O)C(C)[N+](=O)[O-] (centres undefined)	-1.8	?	5.2	.	1	21	6
Cc1c(NC(=S)N/N=C/C=C/c2ccccc2)c(=O)n(-c2ccccc2)n1C	6.7	.	-1.4	39	9	1.1	-1
CCn1c(=O)[nH]c2cc(C(=O)N3CCN(c4ccccc4)CC3)ccc2c1=O	-0.2	0%	4.8	-4	6	1.1	-1
CC(C)c1ccc(NC2CCCN(C(=O)c3ccco3)C2)cc1 (centres undefined)	-4.7	1%	0.3	36	1	-3.2	-6
O=C(Nc1cc(C(F)(F)F)ccc1N1CCOCC1)c1cncc(Br)c1	-0.7	11%	-1.3	-17	-8	-1.4	-14
Cc1ccccc1Nc1nc(N)nc(COC(=O)CCNS(=O)(=O)c2ccccc2)n1	6.1	0%	0.5	-3	7	7.0	1
COc1ccc(-c2noc(CCC(=O)N3CCN(c4cccc(C)c4)CC3)n2)cc1	-0.2	-1%	.	.	3	.	.
COc1ccc(/C=C/C(=O)NC(=S)NNC(=O)Cc2cccs2)cc1	4.9	7%	-1.2	-15	0	5.1	-20
c1ccc(C[n+]2csc3ccccc32)cc1	-2.2	9%	-0.5	24	17	-0.3	?
Cc1ccc(-c2nc(C)c(C(=O)O)s2)cc1	1.9	2%	-2.9	37	0	-0.8	9
COc1cccc(OC)c1C(=O)NNC(=O)c1ccc(F)cc1	-1.1	-1%	0.5	-6	-6	5.5	-5
